Calb biofilm kill: mixtures killing C. albicans biofilm; C. albicans biofilm persisters + clotrimazole, fluorescence viability; primary screen in compound mixtures of four per well; inhibition, % at 7.6 µM; 120,000 compounds, 0.02% hits; AID 1242;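 active = inhibition above 30.3% in the primary screen of four-compound pools, then above 30% when the compound was retested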;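 note: compounds exposed to preformed 24 h biofilms for 48 h; the number belongs to the whole pool; some results filed as inactive read as strong as hits; inactives centre near 12; 0% = biofilm with clotrimazole alone and 100% = kill control; retested singly at about 60 µM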
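System: C. albicans CAF4-2 wild-type biofilms; Medium: RPMI/MOPS medium, pH 7.0; Reagent: Clotrimazole, 50 µg/mL; Times: biofilm formation 24 h, compound exposure 48 h, 37 °C; Detection: 2-h Alamar Blue fluorescence, 535/590 nm excitation/emission; Evaluation: percent inhibition of biofilm viability.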
Active calls of the source: *.

| canonical_smiles | Calb biofilm kill |
| --- | --- |
| COC(=O)C(O)(CC(=O)Nc1cc(OC)c(OC)c(OC)c1)C(F)(F)F (stereo unspecified) | 9.5 |
| Cc1cc(C)c(-n2nnnc2SC(C)C)c(C)c1 | -12.9 |
| CCN(CC)S(=O)(=O)c1cccc(-c2n[nH]c(=S)n2/N=C/c2ccc(Br)cc2)c1 | 11.6 |
| O=C(NC1CCCCCC1)c1cc(S(=O)(=O)N2CCCCC2)ccc1N1CCOCC1 | 10.3 |
| CC1CCOC2(O1)C(=O)Nc1ccccc12 (stereo unspecified) | 3.0 |
| CC(=O)Cn1cnc2c(sc3nc(C)cc(C)c32)c1=O | 10.7 |
| CC(C)N(C(=O)COC(=O)CNC(=O)c1ccc(Br)cc1)c1ccccc1 | 15.6 |
| CCOC(=O)c1ccc(Nc2sc(C(=O)c3cccc([N+](=O)[O-])c3)c(N)c2C#N)cc1 | 18.8 |
| CCCCNC(=O)N1CCN(C(=O)C2CCCO2)CC1 (stereo unspecified) | 8.4 |
| Cc1cc(C)c(NC(=O)C2=CCN(S(=O)(=O)c3ccc(F)cc3)CC2)c(C)c1 | 9.2 |
| NC1=NC[C@H](Cc2ccccc2)N1CCc1cc(C(F)(F)F)cc(C(F)(F)F)c1 | 11.5 |
| CCc1ccc(C(O)(c2ccccc2OC)C(CN2CCOCC2)c2ccccc2)cc1 (stereo unspecified) | 4.2 |
| CCN(CC)S(=O)(=O)c1ccc(OC)c(NC(=O)c2ccc([N+](=O)[O-])cc2)c1 | 3.9 |
| CCOc1ccc(/C=N/NC(=O)C(=O)NCc2ccco2)cc1 | 17.2 |
| O=C(O)c1ccccc1C(=O)Nc1ccccc1[N+](=O)[O-] | 16.8 |
| COc1ccc(C(=O)Nc2ccc(S(=O)(=O)Nc3ncccn3)cc2)cc1OC | 3.9 |
| CC(=O)Nc1ccc(NC(=O)CCCN2C(=O)c3ccccc3C2=O)cc1 | 1.9 |
| Cc1cccc(C(C)C)c1NC(=O)COC(=O)COc1ccc2c(C)cc(=O)oc2c1 | 21.1 |
| COc1ccc(-c2cn3cccc(C)c3n2)cc1F | 5.8 |
| CC(=O)c1nnn(-c2cccc([N+](=O)[O-])c2)c1C | 11.4 |
| Cc1ccccc1NC(=S)NCC(c1cccnc1)N1CCOCC1 (stereo unspecified) | 7.9 |
| CC(=O)OCCCn1c(C)[n+](C)c2cc(Cl)c(Cl)cc21 | 11.1 |
| CCC(C)OC(=O)C1=C(C)O[C@]23OC(N)=C(C#N)[C@]12C(=O)c1ccccc13 (stereo partly specified) | 5.9 |
| COc1ccc(C(=O)C2CCN(C(=S)NCCc3ccc(OC)c(OC)c3)CC2)cc1 | 23.4 |
| CC(NC(=O)c1ccccc1)c1ccc(Br)cc1 (stereo unspecified) | 31.6 |
| CCOC(=O)CCNCc1ccc(F)cc1 | 13.9 |
| CCOC(=O)N1N=C(CC)CC1(O)C(F)(F)F (stereo unspecified) | 6.4 |
| C=CCNC(=O)/C(C#N)=C/c1ccccc1Cl | 0.9 |
| CNC(=S)N/N=C1\CC(c2ccccc2)Oc2ccccc21 (stereo unspecified) | 12.0 |
| CC(CCc1ccccc1)NC(=O)COC(=O)c1ccc(S(C)(=O)=O)c([N+](=O)[O-])c1 (stereo unspecified) | 8.1 |
| Cc1cc(Cl)ccc1NC(=S)NCCCO | 1.4 |
| CCN(CC(=O)Nc1sc2c(c1C#N)CCC(C)C2)Cc1nc2ccccc2c(=O)[nH]1 (stereo unspecified) | -8.2 |
| CSc1nc(-c2ccco2)nn1C(=O)c1ccccc1Cl | 24.7 |
| O=C(NC1CCCCC1)Oc1ccccc1 | 7.7 |
| CCOCC(=O)Nc1nc(C)cc(C)n1 | 5.8 |
| O=[N+]([O-])c1ccc(C2=NCCO2)cc1 | 13.3 |
| COc1ccc(C(=O)Nc2ccc(Cl)cc2C(=O)N2CCCC(C)C2)cc1OC (stereo unspecified) | 11.1 |
| Oc1ccccc1N1CCN(C(=S)Nc2ccc(SC(F)F)cc2)CC1 | 5.8 |
| Cc1ccccc1/C=N\NC(=O)c1ccccc1-n1cccc1 | 0.7 |
| O=C(CN1CCN(c2ccc(O)cc2)CC1)NC(c1ccccc1)c1ccccc1 | 17.7 |
| Cc1ccc(-c2cc(C(=O)OCn3nnc4ccccc4c3=O)c3ccccc3n2)cc1 | 0.6 |
| OCCCNCc1ccc(Cl)cc1Cl | -0.1 |
| Cc1ccn2c(c1)nc(=S)n2C(=O)c1ccccc1 | 8.0 |
| CCOc1ccc(NC2C=CS(=O)(=O)C2)cc1 (stereo unspecified) | 13.3 |
| N#Cc1ccccc1NC(=O)CNc1ccc(Cl)c(C(F)(F)F)c1 | -3.3 |
| Cc1c(Nc2scc(-c3ccccc3)[n+]2-c2ccccc2)c(=O)n(-c2ccccc2)n1C | 9.7 |
| Cc1c(/C=N/NC(=O)CNc2ccccc2)c2ccccn2c1C(=O)c1ccncc1 | 21.2 |
| COc1ccc(N2CCN(CC(=O)Nc3sccc3C#N)CC2)cc1 | -3.9 |
| COc1cccc(/C=C/C(=O)OCC(=O)c2cc(C)n(CC3CCCO3)c2C)c1OC (stereo unspecified) | 18.4 |
| O=C(NCC1CCCO1)c1ccc(COc2ccccc2Br)cc1 (stereo unspecified) | 10.6 |

The final 2 records of the section before open the next one:
| canonical_smiles | Calb biofilm kill |
| --- | --- |
| COc1cccc(/C=C/C(=O)OCC(=O)c2cc(C)n(CC3CCCO3)c2C)c1OC (stereo unspecified) | 18.4 |
| O=C(NCC1CCCO1)c1ccc(COc2ccccc2Br)cc1 (stereo unspecified) | 10.6 |
| COc1ccc(/C=N/Nc2cc(C)nc(NS(=O)(=O)c3ccc(C)cc3)n2)cc1 | 11.7 |
| CCOC(=O)CSC1=N/C(=C\c2cccnc2)C(=O)N1c1ccc(OC)cc1 | 13.0 |
| CC(Sc1cnccn1)C(=O)O (stereo unspecified) | 4.4 |
| NC(=O)NC(=O)CC1S/C(=N/N=C2/NC(=O)CS2)NC1=O (stereo unspecified) | 4.8 |
| CNS(=O)(=O)c1cccc(C(=O)OCC(=O)c2c(N)n(C)c(=O)n(C)c2=O)c1 | 15.8 |
| CC(=O)c1cccc(NC(=O)/C=C/c2ccc([N+](=O)[O-])s2)c1 | 12.9 |
| Cc1cc(OCC(=O)N(C)c2ccccc2)cc2c1C(=O)CC(C)(C)O2 | 24.6 |
| CCn1c(CNC(=O)c2ccccc2F)nnc1SCCOc1ccccc1 | 13.8 |
| Cc1cc2ncn(C(=O)N3CCC(C)CC3)c2cc1C | 13.2 |
| Cc1cccc(N2CCN(C(=O)C3CCN(S(=O)(=O)N4CCOCC4)CC3)CC2)c1C | 2.4 |
| O=C(Cc1ccccc1F)NCC1(N2CCOCC2)CCCCC1 | 32.0 |
| CC1=CC(C)(C)N2C(=O)C3(NCCc4c3[nH]c3ccccc43)c3cc(C)cc1c32 (stereo unspecified) | 18.5 |
| Cc1cccc(NC(=S)N(Cc2cccs2)Cc2cc3cc(C)cc(C)c3[nH]c2=O)c1 | 5.7 |
| Cn1cc(C(=O)N/N=C/C(Br)=C/c2ccccc2)ccc1=O | 14.4 |
| COc1ccc(NC(=O)c2ccco2)c([N+](=O)[O-])c1 | 19.9 |
| Cc1cc(NCc2ccco2)nc(N2CCC(C(=O)NC3CCCCC3)CC2)n1 | 15.8 |
| Cc1ccc(-c2nc(CN(C)Cc3ccc4nccnc4c3)c(C)o2)s1 | 4.6 |
| Cn1c(SCc2ccc(Br)cc2)nc2c(c1=O)SCC2 | 5.0 |
| C=CCn1c(=O)[nH]c2nc3cc(N=CN(C)C)c(C)cc3nc2c1=O | 22.6 |
| COP(=O)(OC)c1nc(-c2ccccc2)oc1NCc1ccccc1 | -9.5 |
| CCN1CCN(c2nc(N)c([N+](=O)[O-])c(Nc3ccc(C)c(C)c3)n2)CC1 | 16.6 |
| Cc1ccc(OCCCCN2CCCC(C)C2)c([N+](=O)[O-])c1 (stereo unspecified) | 12.6 |
| COC(=O)c1cc(Br)c(N)cc1OC | 13.1 |
| COc1ccc(CCN2C(=NC(=O)C(C)C)SC3CS(=O)(=O)CC32)cc1 (stereo unspecified) | 23.5 |
| O=C(O)/C=C/C(=O)c1ccc2c(c1)NC(=O)CO2 | 13.2 |
| COc1ccccc1-c1c(-c2ccc(O)cc2O)n[nH]c1C(F)(F)F | 10.3 |
| O=C(NC(=O)N1CCCCC1)c1ccccc1 | 14.4 |
| COCCN(Cc1ccco1)C(=O)Cn1ncc2c(=O)oc3ccccc3c21 | 11.3 |
| O=C(O)CCC(=O)Nc1ccc(NC(=O)c2ccc(Cl)cc2Cl)c(Cl)c1 | 16.5 |
| COc1ccc(CNC(=O)Cn2cc(C(F)(F)F)ccc2=O)cc1 | 2.7 |

3 entries already listed, ordered by molar mass, ascending:
| canonical_smiles | Calb biofilm kill |
| --- | --- |
| OCCCNCc1ccc(Cl)cc1Cl | -0.1 |
| O=C(O)c1ccccc1C(=O)Nc1ccccc1[N+](=O)[O-] | 16.8 |
| Cc1ccc(-c2nc(CN(C)Cc3ccc4nccnc4c3)c(C)o2)s1 | 4.6 |

Continuation.
| canonical_smiles | Calb biofilm kill |
| --- | --- |
| COc1cccc(NC2C=CS(=O)(=O)C2)c1 (stereo unspecified) | 11.8 |
| CCC1(C(=O)OC)NC(c2ccco2)C2C(=O)N(c3ccc(F)cc3)C(=O)C21 (stereo unspecified) | -0.9 |
| COC(=O)c1cn(NC(=O)Cn2nc([N+](=O)[O-])c(Br)c2C)c(=O)c2ccccc12 | -0.4 |
| Clc1ccc(-c2nc3ccccc3[nH]2)cn1 | 14.3 |
| Cc1nc2sccn2c(=O)c1CCN1CCC(=C(c2ccc(F)cc2)c2ccc(F)cc2)CC1 | 15.9 |
| CCN(CC)S(=O)(=O)c1ccc(OC)c(N)c1 | 9.7 |
| COc1ccccc1N(C(=O)c1cncc(Br)c1)c1nc(-c2ccc(C)cc2)cs1 | -0.1 |
| O=C(CN1CCN(c2ccc(O)cc2)CC1)Nc1cc([N+](=O)[O-])ccc1Cl | 27.6 |
| CCN(C(=O)c1ccccc1)c1ccc([N+](=O)[O-])cc1 | 13.1 |
| CCC(=O)Nc1sc2c(c1C#N)CCC2 | 21.0 |
| COc1ccccc1Nc1nnc(SCC2CCCCO2)s1 (stereo unspecified) | 9.2 |
| N#CC(C#N)=C(Nc1ccc(F)cc1)SCc1cccc(Br)c1 | 21.4 |
| COc1ccc(/C(O)=C2/C(=O)C(=O)N(CCCN(C)C)C2c2cccc(Cl)c2)cc1OC (stereo unspecified) | 8.0 |
| COc1cc(/C=N/NC(=O)c2cncc(Br)c2)cc([N+](=O)[O-])c1O | 7.8 |
| O=S(=O)(c1ccc2nc(-c3ccccc3)[nH]c2c1)N1CCN(c2cccc(Cl)c2)CC1 | 6.3 |
| Cc1ccc(NC(=O)CN2C(=O)CNC2=O)cc1 | 14.5 |
| O=C(/C=C/NCc1cccnc1)C(F)(F)C(F)(F)F | 13.8 |
| CCOc1ccccc1C(=O)Nc1nnc(SCC(=O)N2CCOCC2)s1 | 17.2 |
| CN(C)c1ccc(C(=S)N2CCN(C(=S)Nc3ccccc3)CC2)cc1 | 11.2 |
| COC(=O)C1(C(C[N+](=O)[O-])c2ccc(C)cc2)C(=O)NCC1c1ccco1 (stereo unspecified) | 21.1 |
| CC(=O)c1sc(N/N=C2\CC3CC2C(C)C3(C)C)nc1C (stereo unspecified) | 9.8 |
| O=C(N=Nc1c(O)[nH]c2ccccc12)c1cccs1 | 21.2 |
| CN1CCN(C(=O)c2ccc(C(F)(F)F)cc2)CC1 | 9.5 |
| COc1ccc(N(CC(=O)Nc2cccc(C)c2C)S(=O)(=O)c2c(C)[nH]c(=O)[nH]c2=O)cc1 | 18.8 |
| Cc1cccnc1NC(N)=S | 6.2 |
| COc1cccc(-n2ccnc2SCC(=O)Nc2ccccc2F)c1 | 9.8 |
| COc1ccc(C(=O)Cc2ccc3c(c2)OCO3)c(O)c1 | 13.8 |
| COCCn1nnnc1C(C(C)C)N1CCSCC1 (stereo unspecified) | 14.3 |
| COc1ccc(N/C=C2\CCc3ccccc3C2=O)cc1 | 3.9 |
| CCC(c1nnc(SCC(=O)Nc2cccnc2Cl)n1-c1ccccc1)N(C)C (stereo unspecified) | 8.8 |
| CN(C)S(=O)(=O)c1ccc(C(=O)NCCN2C(=O)S/C(=C\c3cccnc3)C2=O)cc1 | 10.1 |
| CC1=NN(/C(=N\c2nnc(C)s2)Nc2ccc(C)cc2)[C@H](c2ccc(C)cc2)S1 | 16.4 |
| Cc1ccc2cc(C)c(Sc3nnnn3-c3ccccc3)nc2c1 | 21.9 |
| Cc1ccc(NC(=O)Nc2cnc3ccccc3c2)cc1 | 4.0 |
| Cn1c(-c2ccccc2)cnc1SCC(=O)N1CCCCC1 | 10.3 |
| CCOC(=O)/C(C#N)=C1/C=C(C)c2ccccc2N1 | 20.4 |
| CC(=O)Nc1cc(-c2ccc(Cl)cc2)nn1-c1ccccc1 | 10.8 |
| O=C1CC(c2c(F)cccc2Cl)C(n2cncn2)C(O)=C1C1NCCc2ccccc21 (stereo unspecified) | 8.8 |
| CCCc1nc(SCC(=O)N2CCC(C)CC2)c2c(=O)n(C)c(=O)n(C)c2n1 | 18.5 |
| O=C(NC1CSCC1OC(=O)c1ccccc1)c1ccccc1 (stereo unspecified) | 16.7 |
| CCc1ccc(N2C(=O)CN(Cc3ccc(OC)c(OC)c3)C2=S)cc1 | 20.2 |
| S=C(NCC1CCCO1)N1CCN(Cc2ccccc2)CC1 (stereo unspecified) | 22.6 |
| COCCNC(=O)CSc1nnc(-c2ccccc2)c(-c2ccccc2)n1 | -0.7 |
| CCN(CC)c1ccc(S(=O)(=O)N2CCOCC2)cc1NC(=O)CSc1cccc[n+]1[O-] | 17.5 |
| Cc1c(C(=O)NN2CCOCC2)oc2ccccc12 | 4.8 |
| Cc1noc(C)c1-c1nnc(-c2ccc(OC(F)(F)F)cc2)o1 | 15.6 |
| O=C(OCC(=O)N1c2ccccc2Sc2ccccc21)c1ccc[n+]([O-])c1 | 9.7 |
| O=C(O)c1nccnc1C(=O)NCCc1c[nH]c2ccccc12 | 18.6 |
| Cc1ccc(C(=O)N/C(=C/c2cccc([N+](=O)[O-])c2)C(=O)NC(C)C)cc1 | 16.3 |

A portion of the library; rates above refer to the full screens.
